# Assay outcomes deposited in PubChem by National Center for Advancing Translational Sciences (NCATS).
# GLA inh pH 4.5 – qHTS Assay for Inhibitors of Human alpha-Galactosidase at pH 4.5; 230,000 tested, under 10 active; purified enzyme, 4-MU-alpha-Gal fluorescence, pH 4.5; Alpha-galactosidase A (Homo sapiens), P06280; activity change, negative = inhibition, % at 105 µM; AID 1467, 2008; inconclusive = small, poorly fitted or top-dose-only inhibition, or a rising curve; inactive = flat fitted curve, though single readings scatter; no compound was filed as active;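 also: 0% = full activity with enzyme and -100% = basal without enzyme; dose as in the result columns while the protocol names 77 µM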
# Target sequence (P06280 whole entry, looked up): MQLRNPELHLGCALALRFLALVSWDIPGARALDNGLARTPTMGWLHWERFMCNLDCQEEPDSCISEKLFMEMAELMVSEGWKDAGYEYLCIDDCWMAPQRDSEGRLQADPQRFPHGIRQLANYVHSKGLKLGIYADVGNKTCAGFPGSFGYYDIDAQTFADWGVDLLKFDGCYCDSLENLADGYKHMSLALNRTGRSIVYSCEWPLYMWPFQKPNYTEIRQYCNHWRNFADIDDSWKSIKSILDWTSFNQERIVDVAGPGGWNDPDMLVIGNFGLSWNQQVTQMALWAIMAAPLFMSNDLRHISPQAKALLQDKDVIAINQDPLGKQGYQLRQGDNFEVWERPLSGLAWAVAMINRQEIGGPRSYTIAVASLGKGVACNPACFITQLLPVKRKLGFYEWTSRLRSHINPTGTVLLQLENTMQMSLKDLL
# Rango complex inh – qHTS Assay for Inhibitors of Rango (Ran-regulated importin-beta cargo) - Importin beta complex formation; Importin subunit beta-1 (Homo sapiens), Q14974; 0.031% of 340,000 active; Potency, µM (doses to about 92.2 µM), inactives show at the top dose inhibition of complex formation; Rango CFP/YFP FRET sensor + importin beta, 45 min; AID 540263, 2011; active = rising FRET ratio curve, often small or poorly fitted; inconclusive = mostly compound fluorescence or quenching in the first reads; inactive = flat curves in all reads;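 also: potency is read from the fitted curve at half-maximal effect; 0% = DMSO wells and 100% = buffer wells lacking importin beta; nearly all actives have a fitted effect of over 15% in size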
#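 Inhibition scored from the CFP 486 nm/YFP 530 nm FRET ratio 45 min after adding 0.125 microM importin beta to 50 nM Rango biosensor preincubated 5 min with compound (room temperature, PBS with DTT, Tween-20, BSA). No-importin wells as positive control.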
# miR-21 FLuc – qHTS Assay for Modulators of miRNAs and/orActivators of miR-21. HeLa miR-21 FLuc reporter, luciferase, 48 h. Potency, µM (doses to about 38.3 µM), for the others: at the highest dose reporter change, positive = more light. 340,000 tested, under 10 active. AID 2288, 2010; active = well fitted rising curve with a large enough effect; inconclusive = small, poorly fitted or top-dose-only effect; inactive = no such curve, though single readings can be large or run the other way;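 also: % of control where 0% means no effect; miR-21 action dims this reporter so a rising signal means less miR-21 action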
#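 HeLa cells stably expressing CMV-driven firefly luciferase with a downstream miR-21 binding sequence, endogenously expressing miR-21, were treated with titrations (up to about 40uM final) for 48 hours at 37 degree Celsius. Luciferase luminescence was read after lysis.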
# Rango dissoc inh – qHTS Assay for Inhibitors of RanGTP induced Rango (Ran-regulated importin-beta cargo) - Importin beta complex dissociation | Potency, µM (doses to about 46.1 µM), for the others: at the top dose activity change, negative = inhibition | Biochemical FRET Rango-importin beta, RanGTP-induced dissociation | Snurportin-1 (Homo sapiens) + GTP-binding nuclear protein Ran (Homo sapiens) + Importin … | AID 540253, 2011 | 0.071% of 340,000 active; active means falling FRET ratio curve, often poorly fitted, with flat reads before Ran was added; inconclusive means other falling curves, or compound fluorescence or quenching; inactive means flat or rising ratio curve;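 also: potency is read from the fitted curve at half-maximal effect; % of control where 0% means no effect; nearly all actives have a fitted effect of over 45% in size; -100% = wells without RanGTP and RCC1; the record marks most hits as doubtful in a second field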
#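 FRET read at 45 min, room temperature: inhibitors block the CFP/YFP signal rise when RanGTP (0.6 uM Ran, 2 mM GTP, 0.2 uM RCC1) frees Rango (0.1 uM) from importin beta (0.25 uM). Pre-read after 5 min compound exposure flags interference.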
# Numbers without * were called inactive; ? = inconclusive; / = no result given; & = joins results of further samples; [ ] = dose if it differs, or a comment. This is a subset; the hit share may differ from the screen's.
# Value order: Rango complex inh	GLA inh pH 4.5	Rango dissoc inh	miR-21 FLuc
1. COc1ccccc1C(=O)NCCC(=O)NC1CCCC(C)C1C (centres undefined)
  3.5%	/	-2%	/
2. Cc1nc(SCc2ccc(C(=O)O)cc2)nc2c1CCCC2
  1.5%	-5	5%	5%
3. CCN1CCN(c2ccc(S(=O)(=O)N3CCOCC3)cc2NC(=O)/C=C/c2ccc(C)cc2)CC1
  -0.1%	/	2%	/
4. COc1ccc(-n2nc3c(N4CCC(C(=O)N5CCC(C)CC5)CC4)nnc(C)c3c2C)cc1
  -1.7%	/	22%	14%&-4%
5. CCOc1ccc(N=Nc2cc(C(C)C)ccc2O)cc1
  -1.3%	2	14%	-12%
6. O=C(COc1ccc2c3c(c(=O)oc2c1)CCC3)N1CCCC1
  -1.6%	/	26%	-4%
7. Cc1ccc(CC2CC(=O)N(c3ccc(Cl)cn3)C2=O)cc1 (centres undefined)
  0.3%	-8	0%	2%
8. Cc1ccccc1Cn1c(C(C)O)nc2ccccc21 (centres undefined)
  0.5%	-1	12%	0%
9. COc1cc(OC)cc(C(=O)NC(C)CNc2ccc(Cl)cc2[N+](=O)[O-])c1 (centres undefined)
  3.4%	/	-8%	-5%
10. COc1ccc(N(CC(=O)N2CCN(c3ccccc3)CC2)S(=O)(=O)c2c(C)noc2C)cc1
  6.6%	1	-1%	-2%
11. O=S(=O)(NC(=NCc1ccccc1)c1ccccc1)c1ccc(Br)cc1
  1.7%	/	0%	3%
12. CN(CC(=O)Nc1cccc(S(=O)(=O)NC2=NCCC2)c1)Cc1cccc(F)c1
  -0.4%	/	-2%	/
13. CC(C)CNC(=S)N(CCN(C)C)Cc1cc2cc3c(cc2[nH]c1=O)OCCO3
  0.4%	/	1%	-3%
14. O=C(Nc1ccccc1Cl)c1cc(S(=O)(=O)N2CCCCC2)ccc1N1CCOCC1
  -1.2%	-12	-1%	-4%
15. CC(NC(=O)c1ccc2c(c1)S(=O)(=O)N=C1CCCCCN12)c1ccc(S(N)(=O)=O)cc1 (centres undefined)
  1.3%	/	-4%	-9%
16. CN(CCCS(=O)(=O)[O-])c1ccc(/C=C/c2ccc3ccccc3[n+]2C)cc1
  1.8%	/	-13%	4%
17. Cc1nc2ccccc2c(=O)n1NC(=O)c1ccc(Cl)c(Cl)c1
  0.3%	/	23%	0%
18. Cc1cc(C)n2c(SCC(=O)NC3CCCCC3)nnc2n1
  -1.6%	6	8%	0%
19. COC(=O)CCC(=O)COc1ccc(OC)cc1C#N
  1.4%	0	1%	-55%
20. COc1cccc(C(=O)N2CCN(Cc3ccc4c(c3)OCO4)CC2)c1OC
  -4.1%	-3	2%	-5%
21. C=CCN(C(=O)c1ccc(Cl)cc1)c1ccccc1C(=O)NCC(=O)O
  -3.6%	-8	11%	-1%
22. N=c1c2c(n(Cc3ccc(F)cc3)c3c1CCC3)CCCC2
  0.3%	-6	3%	?
23. Cc1noc(C)c1CCC(=O)Nc1c(C(C)C)cccc1C(C)C
  -0.8%	/	12%	/
24. COc1ccccc1NC(=O)CN1CCN(CC(=O)Nc2ccc(F)cc2)CC1
  0.4%	-3	-2%	-3%
25. CC(C)CCNC(=O)Cn1c(=O)oc2cc(S(=O)(=O)N3CC(C)CC(C)C3)ccc21 (centres undefined)
  -4.7%	0	-3%	5%
26. Cc1cc(C)c(S(=O)(=O)N2CCOC2CNC(=O)C(=O)NCc2ccncc2)c(C)c1 (centres undefined)
  -3.8%	/	1%	-4%
27. CN(C)CCCNC(=O)c1ccc2[nH]c3ccccc3c2c1
  -3.2%	9	-8%	-2%
28. CSCCC(=O)N(C)CC1CCCN(CCc2cccc(C(F)(F)F)c2)C1 (centres undefined)
  -0.8%	/	-12%	-2%
29. O=C(c1ccccc1)C1Oc2ccccc2C2CC(c3cccs3)=NN12 (centres undefined)
  -0.9%	-4	1%	-31%
30. CCOc1ccc(NC(=O)CCC(=O)O)cc1
  2.4%	0	4%	0%
31. CC(OC(=O)CN1C(=O)C2CCCCC2C1=O)C(=O)Nc1ncc(Cl)cc1Cl (centres undefined)
  3.4%	-10	-10%	-3%
32. CCOC(=O)N1CCN(c2ncnc3scc(-c4ccc(Cl)cc4)c23)CC1
  -1.9%	/	1%	-6%
33. CCCCn1c(N)c(N(CC)C(=O)c2ccccc2F)c(=O)[nH]c1=O
  -4.0%	/	14%	3%
34. CC(C)(C)C1CCc2c(sc3nc(SCC(N)=O)nc(N)c23)C1 (centres undefined)
  -2.3%	-4	7%	-43%
35. O=C(NCCCN1CCCC1=O)c1ccc2c(=O)n(Cc3ccco3)c(=S)[nH]c2c1
  3.6%	-10	-8%	2%
36. Cc1nn2c(=O)cc(COC(=O)c3c(F)cccc3Cl)nc2s1
  2.6%	/	-15%	/
37. Nc1ccc(CCS(N)(=O)=O)cc1
  2.5%	2	-13%	0%
38. CCOc1ccc(-n2c(-c3ccco3)nc3c(cnn3-c3ccc(C)cc3)c2=O)cc1
  -5.8%	-4	18%	-1%
39. Cc1ccc(NC(=O)CNc2cccc(S(=O)(=O)N3CCCC3)c2)cc1F
  -0.9%	/	2%	/
40. Cc1nc([N+](=O)[O-])c(SCC(N)=O)n1Cc1ccccc1
  2.6%	-27	-16%	-6%
41. CCCCN(C)S(=O)(=O)c1ccc(C(=O)Nc2nnc(-c3cccs3)o2)cc1
  /	-3	/	22%
42. CC1CC(C)CN(S(=O)(=O)N2CCCC(C(=O)NCc3ccccc3Cl)C2)C1 (centres undefined)
  -3.8%	/	-6%	1%
43. CCCc1[nH]nc2c1C(CCC)C(C#N)=C(N)O2 (centres undefined)
  -3.3%	-8	1%	2%
44. Cc1ccc(NC(=O)CC2OC(=O)c3ccccc32)cc1S(=O)(=O)N1CCCCCC1 (centres undefined)
  -2.7%	/	-1%	/
45. Cc1ccc(OCc2ccc([N+](=O)[O-])cc2)c([N+](=O)[O-])n1
  -4.1%	/	6%	-12%
46. O=C(NCC1CCOCC1)c1ccc(OC2CCN(Cc3ccccn3)CC2)cc1
  -0.5%	-5	8%	-1%
47. O=C(Nc1nccs1)c1ccc(-c2ccccc2Cl)o1
  -4.8%	-3	-10%	-34%
48. CC1CCC2(CC1)NC(=O)c1ccccc1O2 (centres undefined)
  4.0%	5	2%	-3%
49. CC(C)c1ccc(OCC(=O)Nc2ccc3oc(=O)ccc3c2)cc1
  -1.0%	/	-13%	-2%
50. CC1CCCN(C(=O)CSc2ncccn2)C1 (centres undefined)
  1.8%	/	13%	-14%
51. CC(C)(C)c1nnc(NC(=O)Cc2ccc(Br)cc2)s1
  2.0%	0	2%	-4%
52. CCCCN(C(=O)c1ccc2c(c1)S(=O)(=O)N=C1CCCCCN12)c1c(N)n(CC(C)C)c(=O)[nH]c1=O
  7.7%	/	9%	/
53. O=C(N1CCOCC1)N1c2ccccc2Sc2ccccc21
  1.4%	-20	-2%	10%
54. COc1ccc(C)cc1NC(=O)COC(=O)c1ccc([N+](=O)[O-])o1
  -1.2%	3[21.1 µM]	-9%	5%
55. CCS(=O)(=O)N1CCN(c2ncnc3sc(C)c(C)c23)CC1
  -2.4%	7	11%	1%
56. CCc1cc(=O)oc2cc(OC(C)C(=O)NCC(O)c3ccccc3)c(Cl)cc12 (centres undefined)
  -1.4%	/	4%	18%
57. CC(=O)O/N=C(/c1nonc1N)N(C)C
  -0.4%	4	-3%	2%
58. CN=C1SC(CC(=O)Nc2cccc(C(F)(F)F)c2)C(=O)N1C (centres undefined)
  0.2%	-5	5%	-6%
59. Cc1csc2nc(CNC(=O)CCC(=O)O)cn12
  0.2%	-6	4%	-2%
60. COc1ccc(NC(=O)C(=O)NCCN2CCN(C(=O)C(c3ccccc3)c3ccccc3)CC2)cc1
  -1.5%	-6	0%	-1%

# Next part.
# Value order: Rango complex inh	GLA inh pH 4.5	Rango dissoc inh	miR-21 FLuc
61. Cc1cc(NS(=O)(=O)c2ccc(NC(=O)c3cc(-c4ccccc4Cl)nc4ccccc34)cc2)no1
  1.2%	-10	-7%	-6%
62. Cc1ccc(S(=O)(=O)NCc2ccccc2)cc1C(=O)N1CCCCC1
  0.8%	/	-15%	13%
63. COC(=O)NN1C(=O)C(c2ccccc2)=C(c2ccc(Cl)cc2)C1=O
  -1.7%	/	2%	/
64. Cc1ccc(NC(=O)CCN2C(=O)c3ccncc3C2=O)cc1
  0.4%	3	-1%	1%
65. O=C(NCc1ccc(F)cc1)c1nc(-c2cccs2)no1
  -0.2%	2	1%	-12%
66. CC/C(=N\NC(=O)c1ccc2c(c1)OCO2)C12CC3CC(CC(C3)C1)C2
  8.0%	5	-12%	-26%
67. NS(=O)(=O)c1cccc(NC(=O)COc2ncnc3c2cnn3-c2ccccc2)c1
  1.5%	1	15%	0%
68. COc1ccccc1/C=C/C=N\N1CCN(Cc2ccccc2Cl)CC1
  -0.6%	7	-10%	-6%
69. COc1ccc(OCCSc2nnc(CCNC(=O)c3ccc(OC)cc3)n2C)cc1
  0.6%	4	0%	-1%
70. COc1ccc(S(=O)(=O)N2CCOC2CNC(=O)C(=O)NCc2ccc3c(c2)OCO3)cc1OC (centres undefined)
  -0.2%	/	-4%	-7%
71. NS(=O)(=O)c1ccc(CCNC(c2ccccc2)c2ccccc2)cc1
  2.0%	/	1%	14%
72. CC1(C)C2CCC1(C)C(NCC(O)COc1ccc(C#N)cc1)C2 (centres undefined)
  4.5%	/	-11%	0%
73. CCc1ccc(S(=O)(=O)NCc2cn3ccccc3n2)s1
  0.9%	-1	7%	1%
74. COc1cc(CC(=O)OCC(=O)Nc2ccc([N+](=O)[O-])cc2)cc(OC)c1OC
  5.6%	1	0%	-3%
75. COc1ccc(C(C)=O)cc1CSc1nnc(SCc2cc(C(C)=O)ccc2OC)s1
  -1.0%	5	8%	1%
76. CCc1nnc(NS(=O)(=O)c2ccc(NC(=O)c3ccc(Br)cc3)cc2)s1
  1.2%	/	-8%	-6%
77. COc1ccccc1NC(=O)CN1C(=O)COc2ccc(S(=O)(=O)N3CCC(C)CC3)cc21
  0.4%	/	12%	0%
78. O=S(=O)(NCCN1CCCC1)c1cccc2cccnc12
  -0.5%	-27	-7%	-4%
79. Cc1nnc2ccc(-c3cccc(NS(=O)(=O)c4ccccc4[N+](=O)[O-])c3)nn12
  -0.1%	/	9%	/
80. Cc1ccc(C(=O)CCC(=O)OCc2nnc(-c3ccccc3)o2)cc1
  1.4%	/	22%	/
81. CCN1C(=O)/C(=C/c2cc(C)n(C)c2C)SC1=Nc1ccc(OC)cc1
  ?	-7	?	-12%
82. CCCCN(CCCC)CCNC(=O)c1ccc2nc(-c3ccccc3NC(C)=O)c(=O)[nH]c2c1
  -1.7%	-3[21.1 µM]	21%	-1%
83. Cc1ccc(NC(=O)Cn2cnc3c(nnn3Cc3ccc(F)cc3)c2=O)cc1
  -0.1%	-1	-1%	-1%
84. COc1cccc(CN(CC2CCCO2)S(=O)(=O)c2ccc(S(=O)(=O)NCC3CCCO3)cc2)c1OC (centres undefined)
  0.8%	-2	17%	1%
85. Nc1nc(SCc2ccccc2)ns1
  0.5%	-4	7%	-47%
86. CCN(C[C@H]1N[C@@](CC)(C(=O)OC)[C@H]2C(=O)N(Cc3ccccc3)C(=O)[C@@H]12)S(=O)(=O)c1ccc(OC)cc1
  -1.5%	/	-10%	/
87. Cc1ccc(NC(=O)c2nc[nH]c2C(=O)N2CCN(c3ccccc3)CC2)cc1
  3.5%	9	-14%	-4%
88. CCCc1cc(C(=O)N2CCCC(N3CCN(c4ccccc4F)CC3)C2)n(C)n1 (centres undefined)
  -1.8%	/	-11%	7%
89. C=CC[C@H](CC(=O)N(CCO)Cc1ccccc1)C(=O)N[C@@H](C)COC(=O)[C@@H](CC=C)Cc1ccc(F)cc1
  1.2%	/	-5%	/
